# Ecoli rRNA inh = inhibitors of bacterial rRNA selective over humanized ribosomes; E. coli WT GFP vs humanized-ribosome RFP mutants, fluorescence, 24 h; hits give low values; DMSO median 0, no signal -100; GFP signal change (wild-type ribosome), % (concentration not given with the values); actives 1.6% (n = 350,000);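 active = significant combined selectivity score with lowered wild-type GFP, culture density cut under 30%, mutant RFP and density less affected; inactive = any of these conditions unmet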; also: one replicate is shown; some compounds called inactive have numbers as strong as hits
# LANA-H2B inh = blocks KSHV LANA binding to histone H2A/H2B. Q9QR71. inhibition, % (test concentration not listed). cell-free LANA-H2A/H2B peptide, fluorescence polarization. actives 0.6% (n = 320,000); in the data active = inhibition mostly above about 10%, no sharp cut-off; inactive = mostly below about 6.7%;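 also: stock transfer was 7.5 nL into about 10 µL; 0% = median of vehicle wells and 100% = median of positive control wells; one replicate is shown; the record names a cut of 25% in any replicate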
# Target sequence (Q9QR71 whole entry, looked up): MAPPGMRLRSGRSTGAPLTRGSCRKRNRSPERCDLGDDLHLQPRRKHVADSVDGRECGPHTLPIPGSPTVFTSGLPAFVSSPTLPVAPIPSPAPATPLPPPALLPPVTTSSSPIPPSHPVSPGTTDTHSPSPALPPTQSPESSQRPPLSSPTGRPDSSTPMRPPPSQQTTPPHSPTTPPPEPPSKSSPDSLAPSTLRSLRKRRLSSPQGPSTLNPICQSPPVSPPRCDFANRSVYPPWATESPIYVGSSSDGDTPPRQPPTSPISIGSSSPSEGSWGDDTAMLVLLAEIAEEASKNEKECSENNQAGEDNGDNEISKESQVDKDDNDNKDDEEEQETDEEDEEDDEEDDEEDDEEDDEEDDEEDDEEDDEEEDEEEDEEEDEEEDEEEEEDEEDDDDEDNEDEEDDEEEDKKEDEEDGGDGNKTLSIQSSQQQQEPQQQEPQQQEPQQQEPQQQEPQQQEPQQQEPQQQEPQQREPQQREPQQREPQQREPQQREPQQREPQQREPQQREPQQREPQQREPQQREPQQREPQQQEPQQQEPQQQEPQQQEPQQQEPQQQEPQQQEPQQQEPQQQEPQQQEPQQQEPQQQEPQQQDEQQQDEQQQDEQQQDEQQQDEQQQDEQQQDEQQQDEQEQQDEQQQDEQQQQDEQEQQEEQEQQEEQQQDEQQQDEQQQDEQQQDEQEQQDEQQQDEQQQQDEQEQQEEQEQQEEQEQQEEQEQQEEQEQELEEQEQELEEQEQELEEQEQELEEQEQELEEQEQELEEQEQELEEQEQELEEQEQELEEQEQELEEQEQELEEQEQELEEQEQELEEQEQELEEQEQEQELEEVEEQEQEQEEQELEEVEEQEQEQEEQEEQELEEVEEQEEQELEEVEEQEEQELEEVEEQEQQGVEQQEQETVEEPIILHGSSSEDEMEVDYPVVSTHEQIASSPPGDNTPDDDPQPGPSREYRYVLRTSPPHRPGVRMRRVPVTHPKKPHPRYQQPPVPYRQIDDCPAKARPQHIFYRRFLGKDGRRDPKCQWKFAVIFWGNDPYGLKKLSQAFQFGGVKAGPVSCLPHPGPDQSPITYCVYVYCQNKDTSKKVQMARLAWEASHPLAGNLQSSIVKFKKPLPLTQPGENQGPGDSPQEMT
# ALR inh = blocks human ALR sulfhydryl oxidase activity; AID 485317; purified ALR, DTT oxidation, H2O2 HRP-luminol luminescence; P55789; actives 3.8% (n = 290,000); inhibition, % (no concentration beside the values);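 active = mean and each replicate at 75% or more; inconclusive = only one of the two met; inactive = neither met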;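 also: stock transfer was 7.5 nL into about 7.5 µL; 0% = neutral wells and 100% = wells with inactivated enzyme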
# B2AR ag = agonists of human beta-2 adrenergic receptor inducing internalization; P07550; Am2.2-beta2AR cells, FAP receptor internalization, flow cytometry; reference of the scale not given here; response, % (concentration not given with the values); actives 0.43% (n = 340,000); AID 504454;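 active = response above a set limit, near 3 SD of response in nonfluorescent compounds, cut at about 42% in these data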;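 also: stock transfer was 100 nL into about 11 µL; a reference agonist was the positive control; negative values mostly stem from fluorescent compounds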
# Bfl-1 A1 inh = inhibitors of the anti-apoptotic protein A1, read as caspase activation; caspase activation, % (test concentration not listed); actives 0.066% (n = 330,000); MEF A1-2A-BIM cells, Caspase-Glo 3/7 luminescence, 3 h; percent of clofoctol response, vehicle zero;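 active = over half of replicate activation scores above 10%, or exactly half above 10 with the replicate mean above 10; inconclusive = replicate mean below 10 yet half the replicates above 10; inactive = over half of replicates below 10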;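 also: wells of about 30 µL received 50 nL stock; many hits fall short of the cut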
# Beta apoptosis = blocks beta cell apoptosis | INS-1E cytokine-induced death, ATP luminescence, 48 h; percent of positive-control rescue, neutral wells zero | protection from apoptosis, % (test concentration not listed) | actives 0.8% (n = 300,000);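 active = all replicates at 75% or more, or half of them and the mean; inconclusive = half reach 75% but not the mean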;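 also: 0% = cytokine-treated negative control wells and 100% = positive control rescue; higher means more ATP so stronger rescue from cytokine killing; wells of about 40 µL received 100 nL stock; the first replicate is given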
# T cruzi repl = T. cruzi replication inhibition; inhibition, % (no concentration beside the values); T. cruzi beta-gal in NIH3T3, luminescence, 90 h; actives 1.4% (n = 300,000);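 active = mean inhibition across valid replicates above about 55%, limit read from the data; inconclusive = mean below that limit but half or more replicates reach it; inactive = mean below it, under half of replicates reach it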;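 also: signal also drops with host cell toxicity which is not excluded here; 0% = plate median of DMSO wells and 100% = zero luminescence signal; higher percent means less beta-gal luminescence so fewer parasites; stock transfer was 50 nL into about 50 µL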
# Calb FLC = C. albicans growth modulation with fluconazole. C. albicans CaCi-2 (fluconazole-resistant clinical isolate) + fluconazole, Alamar Blue growth, 48 h. growth inhibition, % (test concentration not listed). actives 0.57% (n = 300,000);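 active = most replicates above 75%; inconclusive = exactly half above 75%; inactive = most below 75%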;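 also: all wells also contain fluconazole at 8 µg/ml as a sub-toxic cotreatment; 0% = median of DMSO wells and 100% = median of geldanamycin control wells; wells of about 8 µL received 7.5 nL stock; the first replicate is given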
# Ecoli rRNA inh OD600 = further read-out of Ecoli rRNA inh, marked with its call; OD600 change, %; measured here: OD600 growth;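 optical density of the mix in the first replicate; 0 = DMSO median and -100 = no signal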
# Ecoli rRNA inh RFP = also measured in Ecoli rRNA inh; calls as there; RFP signal change, %; measured here: RFP humanized mutant strains;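 first replicate; 0 = DMSO median and -100 = no signal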
# * marks the source's active call; other numbers are inactive results; ? = inconclusive; / = not tested or not shown. An excerpt, so the mix of outcomes need not match the whole.
1. CN(C(=O)CN1C(=O)c2ccccc2S1(=O)=O)c1ccccc1C(=O)O
2. O=C(NC(NC1CCS(=O)(=O)C1)C(=O)c1ccccc1)c1ccc(Cl)cc1 (stereo unspecified)
3. N#CCCn1cc(/C=N/O)c(-c2ccc(-c3ccccc3)cc2)n1
4. CCn1c(SCC(=O)Nc2ccc(Cl)cc2)nnc1C1CC1
5. CN1CN(C)c2cccc3cccc1c23
6. S=C(c1ccc2c(c1)OCO2)N1CCCC1
assay / compound	1	2	3	4	5	6
Ecoli rRNA inh	/	/	/	-1	/	5
Ecoli rRNA inh OD600	/	/	/	3	/	5
Ecoli rRNA inh RFP	/	/	/	0.0	/	-1.7
LANA-H2B inh	4.1	0.8	0.7	-1.1	-3.6	3.0
ALR inh	-1	-8	2	-9	98*	5
B2AR ag	-14	-4	7	-7	3	-3
Bfl-1 A1 inh	1.3	0.6	0.0	-0.5	-0.1	-0.1
Beta apoptosis	-6	-4	12	1	0	-3
T cruzi repl	-10	15	2	-5	-18	-7
Calb FLC	-4	2	0	15	39	1

7. COc1ccc(C#Cc2c(-c3ccsc3)oc3ccc(-c4cc(OC)c(OC)c(OC)c4)cc23)cc1
8. COc1cccc(NC(=O)Cc2ccccc2)c1
9. Cc1cc(C)c(C)c(S(=O)(=O)N2CCN(C)CC2)c1C
10. N#Cc1cc(-c2ccccc2)oc1NC(=O)c1ccccc1
11. C=CCOc1ccc(/C=C/C(=O)OCC(=O)NNC(=O)c2ccccc2F)cc1
12. COc1ccc(C)cc1NC(=S)N1CCN(c2ccccn2)CC1
assay / compound	7	8	9	10	11	12
Ecoli rRNA inh	4	2	7	/	-2	/
Ecoli rRNA inh OD600	12	26	5	/	-11	/
Ecoli rRNA inh RFP	-0.8	1.4	-0.6	/	2.5	/
LANA-H2B inh	6.5	-1.7	2.0	-1.7	-2.7	3.1
ALR inh	-1	2	-1	79*	20	-5
B2AR ag	3	6	-2	8	8	-5
Bfl-1 A1 inh	-2.0	-7.8	0.9	0.4	-0.5	-0.2
Beta apoptosis	-3	5	-1	-4	1	/
T cruzi repl	24	-6	6	4	/	-22
Calb FLC	-3	-2	-11	5	/	-8

13. Cn1c(=O)c2c(SCC(=O)N3CCOCC3)nc(C3CC3)nc2n(C)c1=O
14. CCn1cc(C(=O)Nc2ccccc2)c(=O)c2ccc(C)nc21
15. CC1CCC2(CC1)NC(=O)N(CC(=O)c1cn(CCC#N)c3ccccc13)C2=O (stereo unspecified)
16. CCSCc1nc(N)nc(NCCc2ccccc2)n1
17. COc1ccc(CC(=O)Nc2ccc(N3CCOCC3)cc2)cc1S(=O)(=O)N1CCOCC1
18. CC(=O)C1=C(O)C(=O)N(c2ccc(Br)cn2)C1c1ccccc1[N+](=O)[O-] (stereo unspecified)
assay / compound	13	14	15	16	17	18
Ecoli rRNA inh	8	/	-6	-8	11	-10
Ecoli rRNA inh OD600	3	/	-10	-8	9	-15
Ecoli rRNA inh RFP	-3.2	/	5.0	-4.9	-2.2	2.0
LANA-H2B inh	3.4	-1.6	1.7	-4.7	1.3	-5.4
ALR inh	-11	0	-5	-2	/	-3
B2AR ag	-7	/	1	-11	4	-13
Bfl-1 A1 inh	0.0	0.4	0.4	1.1	-0.3	0.7
Beta apoptosis	0	-3	-12	-3	4	1
T cruzi repl	8	7	13	-7	8	-2
Calb FLC	1	12	-11	-1	6	2

19. CC(=O)Nc1ccc(S(=O)(=O)N2CCC(c3nc4ccc(C)cc4[nH]3)CC2)cc1
20. Cc1ccc(S(=O)(=O)N(CC(=O)N2CCc3ccccc3C2)c2cccc(Cl)c2)cc1
21. CCC(C)(C)c1nnc(NC(=O)C2CC(=O)N(CCc3ccc(F)cc3)C2)s1 (stereo unspecified)
22. CN1CCC(OC(=O)Cc2ccc(Cl)cc2)CC1
23. Cn1ccnc1C(=O)c1ccc(S(=O)(=O)N2CCCC2)cc1
24. Cc1c(NC(=O)c2cccs2)cccc1-c1nc2ccccc2s1
assay / compound	19	20	21	22	23	24
Ecoli rRNA inh	/	/	-5	15	19	/
Ecoli rRNA inh OD600	/	/	-3	1	17	/
Ecoli rRNA inh RFP	/	/	-1.3	1.7	1.3	/
LANA-H2B inh	8.8	6.8	-10	2.1	-1.9	0.8
ALR inh	/	/	4	/	-1	-1
B2AR ag	6	6	-5	-10	-2	-12
Bfl-1 A1 inh	0.8	2.5	0.2	-0.1	-0.2	-0.2
Beta apoptosis	/	1	0	-13	-5	11
T cruzi repl	5	/	-10	20	-5	-5
Calb FLC	5	17	0	-3	0	-25

25. CC(=O)Nc1ccc(S(=O)(=O)NCCC(=O)N2CCN(c3ccccc3Cl)CC2)cc1
26. Nc1nc(N2CCN(c3ccccn3)CC2)nc2ccccc12
27. CCCCOc1ccc(/C=C/C2=CC(C)(C)NC(=S)N2)cc1OCC
28. CN1CCC(N(C)S(=O)(=O)c2ccc(NC(=O)c3ccc(S(=O)(=O)N(C)C)cc3)cc2)CC1
29. O=C(Nc1ccc(F)cc1)c1ccc2nc[nH]c2c1
30. COc1ccc(OCCSc2ncc(CO)n2C)cc1
assay / compound	25	26	27	28	29	30
Ecoli rRNA inh	2	2	/	8	0	0
Ecoli rRNA inh OD600	-12	-3	/	20	4	-7
Ecoli rRNA inh RFP	-2.6	-1.8	/	-0.2	0.9	-2.0
LANA-H2B inh	4.6	-4.0	-1.9	-3.9	1.8	0.4
ALR inh	0	26	0	3	-7	/
B2AR ag	2	-18	-8	2	6	-4
Bfl-1 A1 inh	-1.0	-3.0	-1.3	-0.1	-2.6	0.3
Beta apoptosis	4	-2	6	-13	1	1
T cruzi repl	/	9	70*	/	-46	-3
Calb FLC	/	0	9	/	-2	-18

31. COc1cccc(N2CCN(C(=S)Nc3cc(C)cc(C)c3)CC2)c1
32. COc1ccc(S(=O)(=O)N2CCC(C(=O)Nc3cccc(Cl)c3)CC2)cc1OC
33. COc1cccc(NC(=O)c2cccs2)c1
34. Cc1onc(-c2ccccc2)c1C(=O)O/N=C(\N)c1ccc([N+](=O)[O-])o1
35. COc1ccc(/C=N/NC(=O)c2ccc[nH]2)cc1
36. COc1ccccc1N1CCN(C(=O)c2oc3cc(C)cc(C)c3c2C)CC1
assay / compound	31	32	33	34	35	36
Ecoli rRNA inh	11	-1	/	2	1	/
Ecoli rRNA inh OD600	11	0	/	-3	9	/
Ecoli rRNA inh RFP	3.2	-10	/	-5.2	-0.3	/
LANA-H2B inh	3.0	-5.3	2.4	6.1	-6.7	-7.9
ALR inh	7	15	-32	/	/	-6
B2AR ag	-3	-4	-7	-2	3	-8
Bfl-1 A1 inh	1.5	0.3	-6.4	0.2	-7.1	1.1
Beta apoptosis	/	7	-1	3	/	-4
T cruzi repl	3	51	5	45	-17	21
Calb FLC	11	0	-1	2	-15	23

37. Cc1ccc(NC(=O)C2CCN(S(=O)(=O)c3ccc4c(c3)NC(=O)C(C)S4)CC2)c(C)c1 (stereo unspecified)
38. Cc1cc(C)n2cc(COc3ccccc3)nc2n1
39. CC(C)CN1CCN(Cc2ccc(C#CC(C)(C)O)cc2)CC1CCO (stereo unspecified)
40. CN1C(=O)S/C(=C\c2ccccc2OCc2ccc(C(=O)O)cc2)C1=O
41. Cc1ccc(S(=O)(=O)N2CCCCC2)cc1C(=O)OCC(=O)NC(=O)NC12CC3CC(CC(C3)C1)C2
42. CCCS(=O)(=O)N1CCC(C(=O)NCCCN(C)Cc2ccccc2)CC1
assay / compound	37	38	39	40	41	42
Ecoli rRNA inh	-2	/	/	-25	/	/
Ecoli rRNA inh OD600	-5	/	/	-38	/	/
Ecoli rRNA inh RFP	16	/	/	-11	/	/
LANA-H2B inh	-2.7	-0.1	1.5	-4.3	-0.8	-2.5
ALR inh	-10	-9	0	15	-13	-6
B2AR ag	-1	-21	1	3	6	2
Bfl-1 A1 inh	-0.2	-0.2	-0.1	-0.8	0.4	1.4
Beta apoptosis	-2	-8	0	7	/	-14
T cruzi repl	-1	-7	1	-8	0	25
Calb FLC	17	3	-6	1	10	-3

43. COc1ccc(CCNC(=O)CCN2C(=O)C(C)Oc3ccc(C)cc32)cc1OC (stereo unspecified)
44. Cc1cccc(NC(=O)Cn2nnc(C(=O)NCc3cccs3)c2N)c1C
45. CNCc1ccccc1OCc1ccc(F)cc1
46. Cc1c(O)c(S(=O)c2ccccc2)c(=O)n(-c2ccccc2)c1-c1ccccc1 (stereo unspecified)
47. CSc1ccccc1NC(=O)CCn1c(=O)oc2ccccc21
48. CCN(CC)c1nc(SCC(=O)O)nc(N(CC)CC)n1
49. COC(=O)C1C(=O)C2=C(CC1C)NC(C)=C(C(=O)OC(C)C)C2c1ccc(OC)c(O)c1 (stereo unspecified)
assay / compound	43	44	45	46	47	48	49
Ecoli rRNA inh	/	/	15	/	10	/	/
Ecoli rRNA inh OD600	/	/	4	/	11	/	/
Ecoli rRNA inh RFP	/	/	1.5	/	-0.7	/	/
LANA-H2B inh	0.3	4.2	0.4	-3.9	-1.5	-1.9	-0.2
ALR inh	-1	-6	-6	32	-4	30	23
B2AR ag	10	11	-2	6	-1	8	1
Bfl-1 A1 inh	0.5	-0.7	-0.4	-0.5	-1.2	-0.3	-0.7
Beta apoptosis	7	0	-13	-3	0	-4	1
T cruzi repl	-13	-1	-13	-10	-2	2	-4
Calb FLC	-6	-2	-27	-8	6	-23	?

# By substructure: the entries above with a Cl atom
2. O=C(NC(NC1CCS(=O)(=O)C1)C(=O)c1ccccc1)c1ccc(Cl)cc1 (stereo unspecified)
4. CCn1c(SCC(=O)Nc2ccc(Cl)cc2)nnc1C1CC1
20. Cc1ccc(S(=O)(=O)N(CC(=O)N2CCc3ccccc3C2)c2cccc(Cl)c2)cc1
22. CN1CCC(OC(=O)Cc2ccc(Cl)cc2)CC1
25. CC(=O)Nc1ccc(S(=O)(=O)NCCC(=O)N2CCN(c3ccccc3Cl)CC2)cc1
32. COc1ccc(S(=O)(=O)N2CCC(C(=O)Nc3cccc(Cl)c3)CC2)cc1OC
assay / compound	2	4	20	22	25	32
Ecoli rRNA inh	/	-1	/	15	2	-1
Ecoli rRNA inh OD600	/	3	/	1	-12	0
Ecoli rRNA inh RFP	/	0.0	/	1.7	-2.6	-10
LANA-H2B inh	0.8	-1.1	6.8	2.1	4.6	-5.3
ALR inh	-8	-9	/	/	0	15
B2AR ag	-4	-7	6	-10	2	-4
Bfl-1 A1 inh	0.6	-0.5	2.5	-0.1	-1.0	0.3
Beta apoptosis	-4	1	1	-13	4	7
T cruzi repl	15	-5	/	20	/	51
Calb FLC	2	15	17	-3	/	0

# Bioassay records as filed in PubChem.
